Polio RdRp inh: poliovirus RNA polymerase inhibition; 0.66% of 150,000 active; poliovirus polymerase elongation, fluorescence polarization; hits give low values; P03300; % elongation, % (compound at 16.7 µg/mL); in the data active = % elongation below about 90%; also: some results filed as inactive read as strong as hits
Target sequence (P03300 1749-2209 limits assumed): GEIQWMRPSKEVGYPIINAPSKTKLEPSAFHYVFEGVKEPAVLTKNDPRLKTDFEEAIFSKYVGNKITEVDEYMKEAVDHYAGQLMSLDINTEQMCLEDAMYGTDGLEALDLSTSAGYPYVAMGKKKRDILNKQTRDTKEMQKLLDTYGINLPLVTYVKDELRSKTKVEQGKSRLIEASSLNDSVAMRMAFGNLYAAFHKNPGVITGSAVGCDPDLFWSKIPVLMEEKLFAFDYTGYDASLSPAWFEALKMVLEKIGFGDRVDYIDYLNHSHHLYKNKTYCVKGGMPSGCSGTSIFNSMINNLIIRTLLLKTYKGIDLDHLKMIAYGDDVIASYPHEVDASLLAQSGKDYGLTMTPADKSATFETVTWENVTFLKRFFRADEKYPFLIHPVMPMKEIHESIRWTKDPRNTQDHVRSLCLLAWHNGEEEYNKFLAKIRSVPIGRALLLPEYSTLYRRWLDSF
Polio RdRp inh intensity: further read-out of Polio RdRp inh, marked with its call; % elongation; measured here: total intensity read-out; formula for this scale not given here;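 total fluorescence in place of polarization; lower means less elongation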
The depositor's hits bear a star. A portion of the library, so the mix of outcomes need not match the whole.

1) Cc1cc(-c2ccc(C)c(S(=O)(=O)N(Cc3cccs3)C(C)C)c2)on1
2) CCc1c(C)nc(SCC(=O)N2CCN(c3ccccc3OC)CC2)[nH]c1=O
3) CC(C)CC(=O)n1nc(-c2ccco2)nc1NCc1ccc(Cl)cc1
4) CCCC1=Nc2cc(C(=O)NC(C)c3ccccc3)ccc2Sc2ccc(C)cc21 (stereo not given)
5) CN(C)c1ccc(-c2nc(-c3ccncc3)no2)cc1[N+](=O)[O-]
6) Cc1ccc(CNc2nnc(C)c3nnn(Cc4ccc(F)cc4)c23)cc1
7) CC(=O)c1ccc(NC(=O)Cn2cc3c(n2)CCCC3)cc1
8) COc1ccc(C(CC(=O)Nc2cc(OC)c(OC)c(OC)c2)N2Cc3ccccc3C2=O)cc1 (stereo not given)
9) CCOc1ccc(CC(=O)NC2CC(=O)N(c3ccc4c(c3)OCCO4)C2)cc1 (stereo not given)
10) COCc1cc(C)nc2sc(C(=O)Nc3ccc(C(C)=O)cc3)c(N)c12

entry no.	1	2	3	4	5	6	7	8	9	10
Polio RdRp inh	103	113	111	108	108	100	103	105	107	102
Polio RdRp inh intensity	102	110	113	110	113	106	105	112	110	100

Fetched by compound from above (2):
10) COCc1cc(C)nc2sc(C(=O)Nc3ccc(C(C)=O)cc3)c(N)c12
2) CCc1c(C)nc(SCC(=O)N2CCN(c3ccccc3OC)CC2)[nH]c1=O

entry no.	10	2
Polio RdRp inh	102	113
Polio RdRp inh intensity	100	110

Additional compounds follow:
11) CCCCCCOc1ccc(/C=C/C(=O)Nc2sc3c(c2C(=O)OC)CCC3)cc1OC
12) O=C(NCc1ccc(F)cc1)c1ccc(CSc2nc3ccncc3n2Cc2ccc(F)cc2)cc1
13) CC(=O)c1ccc(NS(=O)(=O)c2cc(-c3cnc(C4CC4)o3)ccc2C)cc1
14) CCc1ccc(C2c3c(oc4ccc(C)cc4c3=O)C(=O)N2c2nc(C)c(C)s2)cc1 (stereo not given)
15) COC(=O)c1ccc(NC(=O)Cn2ccn3nc(-c4ccc(OC)cc4)cc3c2=O)cc1
16) COCCCNC(=O)Cn1c(=O)n(-c2ccccc2)c(=O)c2c1c1cc(OC)ccc1n2C
17) CC(=O)c1cccc(-n2c(=O)c3c4c(sc3n(CC(=O)c3ccc(Cl)cc3)c2=O)CN(C(C)=O)CC4)c1
18) COC(=O)c1cccc(Nc2c(-c3ccc(SC)cc3)nc3nc[nH]n23)c1
19) CCc1nn2c(=O)cc(COC(=O)c3ccccc3NC(=O)c3cccs3)nc2s1
20) Cc1noc(-c2ccc(N3CCC(C)CC3)c([N+](=O)[O-])c2)n1

entry no.	11	12	13	14	15	16	17	18	19	20
Polio RdRp inh	101	112	103	102	110	100	107	97	106	100
Polio RdRp inh intensity	101	115	109	100	114	100	106	111	109	106

21) CCCC(=O)Nc1nnc2n1CCS2
22) Cc1cccc(C2N3CC4(C(C)C)CN2CC(C(C)C)(C3)C4=O)c1 (stereo not given)
23) CCCOc1ccc(C(=O)Nc2ccc(NC(=O)c3ccccc3)c(Br)c2)cc1
24) Cc1cc(C)c(NC(=O)c2c(C)nn(-c3ccc(F)cc3)c2-n2cccc2)c(C)c1
25) Cc1ccc(-c2ccc(=O)n(CC(=O)Nc3ccc(C(C)C)cc3)n2)cc1
26) Cc1ccc(C(=O)O)cc1NC1(c2ccccc2)C(=O)c2ccccc2C1=O
27) CCN(CC)S(=O)(=O)c1ccc(NC(=O)c2cc3ccc4cccnc4c3[nH]2)cc1
28) CCCCC(CC)CNC(=O)C1CCN(S(=O)(=O)c2cccc3nsnc23)CC1 (stereo not given)
29) O=C(Cn1c(=O)n(Cc2nc(-c3ccccc3)no2)c(=O)c2cc3c(cc21)OCO3)Nc1ccc(Cl)cc1
30) CCC(C)NC(=O)Cn1c(=O)n(-c2ccc(OC)c(OC)c2)c(=O)c2ccccc21 (stereo not given)

entry no.	21	22	23	24	25	26	27	28	29	30
Polio RdRp inh	107	108	105	110	110	114	105	101	106	106
Polio RdRp inh intensity	114	112	110	115	107	99	104	104	111	108

31) COc1ccc(C(=O)Nc2ccccc2C(=O)OCc2cc(=O)n3c4c(sc3n2)CCCC4)cc1
32) COc1cc(NC(=O)CSc2ncccc2C(=O)OC(C)C)cc(OC)c1
33) CC(C)c1cnc2c(c1SCC(=O)Nc1ccc(C(N)=O)cc1)c(=O)n(C)c(=O)n2C
34) Cc1c(C(=O)N(C)c2cccc(C(F)(F)F)c2)sc2nc3n(c(=O)c12)CCCCC3
35) Cc1ccc(Cl)cc1N1CCN(S(=O)(=O)c2cn(C)c(C)n2)CC1
36) COc1ccc(OC)c(CNC(=O)CCc2c(C)nc3c(c2C)c(=O)n(C)c(=O)n3C)c1
37) CCOC(=O)c1c(NC(=O)C(C)Sc2cn(CCNC(=O)c3c(F)cccc3F)c3ccccc23)sc2c1CCC2 (stereo not given)
38) Cc1ccccc1CNC(=O)CCC(=O)N1CC2CCCN2c2ccccc21 (stereo not given)
39) CCOC(=O)c1c(C)oc2nc(C)nc(N3CCN(c4cc(Cl)ccc4C)CC3)c12
40) COc1ccc2c(c1)c1c(c(=O)n(CCc3ccccc3)c(=O)n1Cc1cccc(Cl)c1)n2C

entry no.	31	32	33	34	35	36	37	38	39	40
Polio RdRp inh	100	111	112	111	102	112	110	106	109	110
Polio RdRp inh intensity	104	108	110	99	104	114	111	106	104	109

41) COc1ccccc1CNc1ccc(-c2nc(-c3cccnc3)no2)cc1[N+](=O)[O-]
42) Cc1ccc(Cl)cc1-n1ncc2c(NCCCc3ccccc3)ncnc21
43) CCc1nn2c(=O)cc(COC(=O)c3ccccc3NC(=O)COc3ccc(C)c(C)c3)nc2s1
44) CCN(c1cccc(C)c1)S(=O)(=O)c1nnc(NC(=O)c2ccccc2Cl)s1
45) Cc1nc(-n2nc(C)c(Cc3ccc4c(c3)OCO4)c2C)sc1C(=O)Nc1cccc(Cl)c1
46) COc1ccc(CNC(=O)c2nc(SCc3ccccc3F)ncc2Cl)cc1
47) COc1cc(NC(=O)c2cc3cc4ccc(OC)c(Cl)c4nc3s2)cc(OC)c1
48) O=C(CCS(=O)(=O)c1cc2c3c(c1)CCN3C(=O)CC2)NCc1ccc(Cl)cc1
49) CC1(C(=O)Nc2cccc(Br)c2)Cc2ccccc2C(=O)O1 (stereo not given)
50) COc1ccc(-c2nc3cc(C)ccn3c2NC(=O)c2ccc(F)cc2)cc1

entry no.	41	42	43	44	45	46	47	48	49	50
Polio RdRp inh	109	96	104	109	106	105	106	103	107	99
Polio RdRp inh intensity	118	95	102	105	109	113	114	108	106	103

Not a retest: entries from further up.
48) O=C(CCS(=O)(=O)c1cc2c3c(c1)CCN3C(=O)CC2)NCc1ccc(Cl)cc1
49) CC1(C(=O)Nc2cccc(Br)c2)Cc2ccccc2C(=O)O1 (stereo not given)
50) COc1ccc(-c2nc3cc(C)ccn3c2NC(=O)c2ccc(F)cc2)cc1

entry no.	48	49	50
Polio RdRp inh	103	107	99
Polio RdRp inh intensity	108	106	103

Other compounds follow.
51) Cc1oc(-c2ccc(Cl)cc2)nc1CS(=O)CC(=O)NCc1ccc(Cl)cc1 (stereo not given)
52) COc1ccc(OC)c(CNC(=O)CCn2c(=O)c3cccn3c3ccc(F)cc32)c1
53) Cc1cc(NC(=O)CCc2nc3cccnc3n2-c2ccccc2)ccc1Br
54) O=C(Nc1ccc2c(c1)CCCN2C(=O)c1cccs1)c1ccccc1
55) Cc1ccc2nc(-c3cc(NC(=O)/C=C/c4ccccc4)ccc3Cl)oc2c1
56) COc1cc2[nH]c(=O)n(CCC(=O)N3CCN(c4ccc(Cl)cc4)CC3)c(=O)c2cc1OC
57) COc1ccc(-c2noc(N3CCN(c4ccc(Cl)cc4)CC3)n2)cc1OC
58) Cc1ccc2nc(COc3cccc(NC(=O)Nc4ccc(C)c(Cl)c4)c3)cc(=O)n2c1
59) COc1ccccc1C1=Nn2c(nc3sc(C(=O)Nc4ccccc4Cl)c(C)c3c2=O)SC1
60) O=C(O)c1c(-c2ccccc2)oc2ccc(OCc3c(F)cccc3Cl)cc12

entry no.	51	52	53	54	55	56	57	58	59	60
Polio RdRp inh	108	100	107	109	103	108	107	108	111	104
Polio RdRp inh intensity	111	103	109	86	115	110	108	115	115	108

61) Oc1ccccc1-c1nc(/C=C/c2ccc(F)cc2)no1
62) CN(C)c1ccc(NC(=O)CCSc2nc(-c3ccco3)cc(C(F)(F)F)n2)cc1
63) COCCCNC(=O)c1cc(-c2cccnc2)nc2ccccc12
64) CN1c2ccccc2-c2nc(SCC(=O)Nc3ccccc3C(F)(F)F)ncc2S1(=O)=O
65) COc1ccc(-c2nnc(SCC(=O)Nc3ccc(C(C)=O)cc3)nc2-c2ccc(OC)cc2)cc1
66) O=C(CCn1c(=O)c2ccccc2n(Cc2ccc(Cl)cc2)c1=O)NCc1ccc2c(c1)OCO2
67) O=C(CS(=O)(=O)c1ccc(Cl)cc1)Nc1nc2ccc(Br)cc2s1
68) Cc1cccc(NS(=O)(=O)c2ccc3nc(-c4ccccc4)[nH]c3c2)c1C
69) CCc1ccccc1Nc1ncnc2c1nc1n2CCCC1
70) CCOc1ccc2oc(=O)cc(CN3CCN(C(=O)c4ccc(Cl)cc4)CC3)c2c1

entry no.	61	62	63	64	65	66	67	68	69	70
Polio RdRp inh	106	100	103	105	108	104	111	108	109	101
Polio RdRp inh intensity	105	103	83	113	117	105	112	102	117	95

71) Cc1c(C(=O)N2CCC(C)CC2)c(S(=O)(=O)Nc2cccc(C#N)c2)c(C)n1C
72) COc1ccc(CCNC(=O)c2ccc(Cn3c(=O)c4ccccc4n(Cc4cccc(Cl)c4)c3=O)cc2)cc1OC
73) CCC(=O)N1c2ccccc2CC1C(=O)NCCc1ccc(C)cc1 (stereo not given)
74) CC(=O)Nc1ccc(NC(=O)c2cc3c(=O)n(Cc4cccnc4)ccc3nc2C)cc1
75) N#C/C(=C\c1ccccc1)c1nc(-c2cc3c(ccc4ccccc43)oc2=O)cs1
76) COc1cc(Nc2nc3c(S(=O)(=O)c4cccc(Cl)c4)nnn3c3ccsc23)cc(OC)c1
77) N#Cc1c[nH]n2c(NC3CCCCC3)c(-c3ccc(F)cc3)nc12
78) O=C(CSc1nc(-c2ccc(F)cc2)nc2c1Cc1ccccc1O2)Nc1cccc(C(=O)O)c1
79) CCc1ccccc1NC(=O)C1CCC(CNS(=O)(=O)c2ccc3c(c2)CC(C)N3C(C)=O)CC1 (stereo not given)
80) CN(C)c1ccc(CNC(=O)C2CCN(Cc3cc4ccccc4n3Cc3ccccc3)CC2)cc1

entry no.	71	72	73	74	75	76	77	78	79	80
Polio RdRp inh	112	107	102	99	105	105	104	101	120	94
Polio RdRp inh intensity	114	110	109	93	109	92	106	103	116	82

Reformatted as tab-separated lines: entries from further up.
entry	SMILES	Polio RdRp inh	Polio RdRp inh intensity
79	CCc1ccccc1NC(=O)C1CCC(CNS(=O)(=O)c2ccc3c(c2)CC(C)N3C(C)=O)CC1 (stereo not given)	120	116
72	COc1ccc(CCNC(=O)c2ccc(Cn3c(=O)c4ccccc4n(Cc4cccc(Cl)c4)c3=O)cc2)cc1OC	107	110

Next entries follow.
81) COc1cccc(CNC(=O)N2CCC(CN3CCC(C)CC3)CC2)c1
82) Cc1noc(Cn2c(=O)c3ccccc3n(CC(=O)Nc3ccc(F)cc3F)c2=O)n1
83) COc1ccc(N2CCN(Cc3nc4c(c(=O)[nH]c(=O)n4C)n3Cc3ccccc3F)CC2)cc1
84) Cc1nc2sccn2c(=O)c1S(=O)(=O)Nc1ccc(N2CCOCC2)c(Cl)c1
85) O=C(CSc1nc(-c2cccs2)nc2cc(=O)[nH]n12)Nc1ccc(F)cc1
86) Cc1nc(-c2cccc(F)c2)sc1CCNC(=O)c1c(F)cccc1Cl
87) CSc1nn(Cc2cccc(Cl)c2)c(N(C(C)=O)C(C)=O)c1S(=O)(=O)c1ccccc1
88) COc1ccc(C)cc1NC(=O)c1cccn(Cc2ccccc2Cl)c1=O
89) O=C(CSc1nnc(-c2ccccc2)c(-c2ccccc2)n1)NC1CCCC1
90) Cc1ccc(-n2ncc3c(NCCc4ccccc4)ncnc32)cc1C

entry no.	81	82	83	84	85	86	87	88	89	90
Polio RdRp inh	110	111	103	110	107	106	109	104	109	105
Polio RdRp inh intensity	115	112	103	113	105	113	114	102	110	99

91) Cc1nncn1-c1ccc(C(=O)Nc2cc(F)ccc2F)cc1
92) O=C(NCc1ccc(Cl)cc1)C1=Cc2cc(Br)ccc2OC1
93) CCC(=O)N1CCCc2cc(S(=O)(=O)N3CCC(C(=O)Nc4cccc(Cl)c4)CC3)ccc21
94) CCCCNC(=O)CCn1c(=O)c2cccn2c2ccc(F)cc21
95) CC(=O)N1CCc2cc(S(=O)(=O)NC(CC(C)C)C(=O)Nc3cc(C)cc(C)c3)ccc21 (stereo not given)
96) Cc1ccccc1C(=O)Nc1ccc(S(=O)(=O)N2CCC(c3nc4ccccc4s3)CC2)cc1
97) Cc1ccc(C)c(N2CCN(C(=O)c3cc(S(=O)(=O)N4CCCCCC4)cn3C)CC2)c1
98) CCOC(=O)CSc1nc2sc3c(c2c(=O)n1-c1ccccc1)CC(C(C)C)OC3 (stereo not given)

entry no.	91	92	93	94	95	96	97	98
Polio RdRp inh	112	102	101	106	107	108	104	105
Polio RdRp inh intensity	113	105	102	110	108	106	105	104

Bioassay records from PubChem BioAssay.
